# A1 apoptosis 2: A1 inhibitors via caspase activation, primary screen, cell-based, luminescence, HTS, two replicates; MEF A1-2A-BIM cells, caspase-Glo luminescence, 3 h; percent of clofoctol response, DMSO zero; caspase activation, % (test concentration not listed); 24,000 tested, under 10 active; AID 2465, 2010; in the data active means caspase activation above about 5.9%;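 further: wells of about 30 µL received 50 nL stock; the first replicate is given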
#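 System: mouse embryonic fibroblasts co-expressing A1 and BIM (A1-2A-BIM), primed for A1 dependence; amount: 2500 cells/well; doses: 50 nL pinned compound; schedule: cells settled overnight, compound exposure 3 h at 37 °C, 5% CO2; detection: Caspase-Glo 3/7 luminescence, 1 h at room temperature; read-out: Caspase-3/7 activation, seen as rise in luminescence signal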
# An asterisk follows results filed as active. Only part of the results is shown. The share of hits here may be higher or lower than overall.
# The opening 3 entries, ahead of the listing:
compound | A1 apoptosis 2
COc1ccc(CN(C)C[C@@H]2Oc3ccc(NC(=O)Nc4ccc(F)cc4)cc3CC(=O)N([C@@H](C)CO)C[C@@H]2C)cc1 | 0.2
C[C@@H]1CN([C@@H](C)CO)C(=O)c2cc(NC(=O)c3ccncc3)ccc2O[C@H]1CN(C)C(=O)Nc1ccccc1 | -1.2
COc1cc(Br)cc(/C=N/NC(=O)c2ccc(C(=O)NO)cc2)c1O | -2.9

# The whole of this part, from the start:
compound | A1 apoptosis 2
COc1ccc(CN(C)C[C@@H]2Oc3ccc(NC(=O)Nc4ccc(F)cc4)cc3CC(=O)N([C@@H](C)CO)C[C@@H]2C)cc1 | 0.2
C[C@@H]1CN([C@@H](C)CO)C(=O)c2cc(NC(=O)c3ccncc3)ccc2O[C@H]1CN(C)C(=O)Nc1ccccc1 | -1.2
COc1cc(Br)cc(/C=N/NC(=O)c2ccc(C(=O)NO)cc2)c1O | -2.9
COc1ccc(NC(=O)Nc2cccc3c2O[C@H](CN(C)C(=O)NC(C)C)[C@H](C)CN([C@@H](C)CO)C3=O)cc1 | 0.0
C[C@@H]1CN([C@H](C)CO)C(=O)c2cccc(NC(=O)c3ccncc3)c2O[C@H]1CN(C)S(=O)(=O)c1ccc(Cl)cc1 | 0.2
C[C@H]1CN([C@@H](C)CO)C(=O)c2cc(NC(=O)Cn3cnnn3)ccc2O[C@H]1CN(C)C | 0.3
C[C@H](CO)N1C[C@H](C)[C@H](CN(C)Cc2ccncc2)OCc2cnnn2CCCC1=O | -1.2
Cc1noc(C)c1S(=O)(=O)Nc1ccc2c(c1)C(=O)N([C@@H](C)CO)C[C@@H](C)[C@@H](CN(C)C(=O)Nc1ccccc1)O2 | -1.1
C[C@@H]1CN([C@H](C)CO)C(=O)c2cccc(NC(=O)c3ccc(-c4nccs4)cc3)c2O[C@@H]1CN(C)Cc1ccccc1 | -0.1
C[C@@H]1CN([C@H](C)CO)C(=O)Cc2cc(NC(=O)Cn3cnnn3)ccc2O[C@H]1CN(C)S(=O)(=O)c1cn(C)cn1 | 0.1
C[C@@H]1CCCCO[C@@H](CN(C)C(=O)C2CCCCC2)[C@H](C)CN([C@@H](C)CO)C(=O)c2cc(NS(=O)(=O)c3ccccc3)ccc2O1 | 0.4
C[C@@H]1CN([C@@H](C)CO)C(=O)Cc2cc(NS(C)(=O)=O)ccc2O[C@H]1CN(C)S(=O)(=O)c1cccs1 | -0.6

# Other compounds follow.
compound | A1 apoptosis 2
C[C@H](CO)N1C[C@H](C)[C@H](CN(C)Cc2ccc(-c3ccccc3)cc2)Oc2ccc(NS(=O)(=O)c3ccc(F)cc3)cc2CC1=O | -1.2
C[C@@H]1CN([C@H](C)CO)C(=O)Cc2cc(NS(=O)(=O)c3cn(C)cn3)ccc2O[C@@H]1CN(C)S(=O)(=O)c1ccc(Cl)cc1 | 0.6
CNC[C@@H]1Oc2c(NC(=O)C3CCOCC3)cccc2C(=O)N([C@@H](C)CO)C[C@@H]1C | 1.1
C[C@@H]1CCCCO[C@@H](CN(C)Cc2ccccc2)[C@@H](C)CN([C@H](C)CO)C(=O)c2cc(NC(=O)NC3CCCCC3)ccc2O1 | -0.9
C[C@@H]1CN([C@@H](C)CO)C(=O)c2cccc(NS(=O)(=O)c3cccs3)c2O[C@H]1CN(C)S(=O)(=O)c1ccc(Cl)cc1 | 0.2
C[C@@H]1CCCCO[C@@H](CN(C)C(=O)c2ccccc2)[C@H](C)CN([C@H](C)CO)C(=O)c2cc(NS(C)(=O)=O)ccc2O1 | -0.3
C[C@@H]1CN([C@@H](C)CO)C(=O)c2cc(NC(=O)CCCCCC(=O)Nc3ccccc3N)ccc2O[C@H]1CN(C)Cc1ccncc1 | 0.7
Cc1noc(C)c1S(=O)(=O)Nc1ccc2c(c1)CC(=O)N([C@@H](C)CO)C[C@H](C)[C@H](CN(C)C)O2 | 0.1
Cc1ccsc1/C=N/NC(=O)c1ccc(C(=O)NO)cc1 | -1.0
Cc1noc(C)c1NC(=O)N(C)C[C@H]1Oc2ccc(NC(=O)Cn3cnnn3)cc2CC(=O)N([C@@H](C)CO)C[C@@H]1C | 1.0
Cc1cc(C(=O)Nc2cccc3c2O[C@@H](CN(C)Cc2ccc(C(=O)O)cc2)[C@@H](C)CN([C@H](C)CO)C3=O)n(C)n1 | 1.1
C[C@H](CO)N1C[C@H](C)[C@@H](CN(C)S(=O)(=O)c2cn(C)cn2)OCCCC[C@H](C)Oc2ccc(NC(=O)C3CCCCC3)cc2C1=O | 0.3

# Further compounds follow.
compound | A1 apoptosis 2
COc1ccc(NC(=O)Nc2ccc3c(c2)C(=O)N([C@@H](C)CO)C[C@@H](C)[C@@H](CN(C)Cc2ccc(C(F)(F)F)cc2)OCCCC[C@@H](C)O3)cc1 | 0.6
C[C@@H]1CN([C@H](C)CO)C(=O)c2cc(NC(=O)c3ccncc3)ccc2O[C@H]1CN(C)Cc1ccc(C(F)(F)F)cc1 | -0.1
Cc1noc(C)c1S(=O)(=O)N(C)C[C@@H]1Oc2ccc(NS(=O)(=O)c3cccs3)cc2CC(=O)N([C@H](C)CO)C[C@H]1C | 1.9
COc1ccc(NC(=O)Nc2ccc3c(c2)C(=O)N([C@H](C)CO)C[C@@H](C)[C@H](CN(C)C(=O)c2ccccc2)OCCCC[C@@H](C)O3)cc1 | -0.5
C[C@@H]1CN([C@H](C)CO)C(=O)c2cc(N(C)C)ccc2O[C@@H](C)CCCCO[C@H]1CN(C)S(=O)(=O)c1cn(C)cn1 | 0.4
C[C@H]1CN([C@@H](C)CO)C(=O)Cc2cc(NC(=O)NC3CCCCC3)ccc2O[C@@H]1CN(C)C(=O)Nc1ccccc1 | 0.4
CC(C)NC(=O)N(C)C[C@H]1Oc2c(NC(=O)Nc3cccc4ccccc34)cccc2C(=O)N([C@@H](C)CO)C[C@@H]1C | -0.1
Cc1noc(C)c1NC(=O)Nc1ccc2c(c1)C(=O)N([C@@H](C)CO)C[C@@H](C)[C@H](CN(C)CC1CCCCC1)O2 | -0.1
Cc1ccc(S(=O)(=O)Nc2ccc3c(c2)CC(=O)N([C@H](C)CO)C[C@@H](C)[C@H](CN(C)Cc2ccc4c(c2)OCO4)O3)cc1 | 1.3
C[C@H](CO)N1C[C@H](C)[C@H](CN(C)C(=O)Nc2ccccc2C(F)(F)F)OCc2cn(nn2)CCCC1=O | -1.5
COc1ccc(CN(C)C[C@H]2OCCCC[C@@H](C)Oc3ccc(N(C)C)cc3C(=O)N([C@H](C)CO)C[C@@H]2C)cc1 | -0.2
C[C@H]1CN([C@@H](C)CO)C(=O)c2cccc(NS(=O)(=O)c3ccc(F)cc3)c2O[C@H]1CN(C)Cc1ccc(Cl)c(Cl)c1 | 0.4

# Remaining list, next part.
compound | A1 apoptosis 2
C[C@H]1CN([C@@H](C)CO)C(=O)c2cc(NS(=O)(=O)c3ccccc3)ccc2O[C@H]1CN(C)Cc1ccc2c(c1)OCO2 | 0.8
C[C@@H]1CN([C@@H](C)CO)C(=O)Cc2cc(NC(=O)Nc3cccc4ccccc34)ccc2O[C@@H]1CN(C)Cc1ccc(C(F)(F)F)cc1 | -0.3
CC(C)NC(=O)Nc1ccc2c(c1)C(=O)N([C@H](C)CO)C[C@H](C)[C@@H](CN(C)C(=O)Nc1cccc3ccccc13)O2 | -0.1
C[C@@H]1CN([C@H](C)CO)C(=O)c2cccc(NC(=O)NC3CCCCC3)c2O[C@H]1CN(C)C(=O)Nc1ccc(C(F)(F)F)cc1 | 1.3
C[C@H](CO)N1C[C@H](C)[C@@H](CN(C)C(=O)Nc2ccccc2)Oc2ccc(NS(=O)(=O)c3ccc(Cl)cc3)cc2C1=O | 0.8
C[C@H](CO)N1C[C@H](C)[C@@H](CN(C)C(=O)NC2CCCCC2)Oc2ccc(NS(=O)(=O)c3ccc(Cl)cc3)cc2C1=O | -0.3
Cc1ccc(S(=O)(=O)N(C)C[C@@H]2OCCCC[C@H](C)Oc3ccc(NS(=O)(=O)c4c(C)noc4C)cc3C(=O)N([C@H](C)CO)C[C@H]2C)cc1 | -0.1
Cc1noc(C)c1S(=O)(=O)N(C)C[C@H]1Oc2c(NC(=O)C3CCOCC3)cccc2C(=O)N([C@@H](C)CO)C[C@H]1C | -0.8
CNC[C@@H]1OCCCC[C@H](C)Oc2ccc(NS(=O)(=O)c3cn(C)cn3)cc2C(=O)N([C@@H](C)CO)C[C@H]1C | 0.9
C[C@@H]1CN([C@@H](C)CO)C(=O)c2cc(NC(=O)Nc3ccc(C(F)(F)F)cc3)ccc2O[C@@H](C)CCCCO[C@@H]1CN(C)S(=O)(=O)c1ccc(F)cc1 | 0.5
COc1ccc(S(=O)(=O)Nc2ccc3c(c2)CC(=O)N([C@@H](C)CO)C[C@H](C)[C@@H](CN(C)S(=O)(=O)c2ccc(F)cc2)O3)cc1 | -0.9
CCOC(=O)C1=CC[C@@H](c2ccccc2)[C@@]12CC/C(=C\c1ccccc1)C2=O | 0.0

# Overlap with the part before: 4 compounds, then new ones.
compound | A1 apoptosis 2
CNC[C@@H]1OCCCC[C@H](C)Oc2ccc(NS(=O)(=O)c3cn(C)cn3)cc2C(=O)N([C@@H](C)CO)C[C@H]1C | 0.9
C[C@@H]1CN([C@@H](C)CO)C(=O)c2cc(NC(=O)Nc3ccc(C(F)(F)F)cc3)ccc2O[C@@H](C)CCCCO[C@@H]1CN(C)S(=O)(=O)c1ccc(F)cc1 | 0.5
COc1ccc(S(=O)(=O)Nc2ccc3c(c2)CC(=O)N([C@@H](C)CO)C[C@H](C)[C@@H](CN(C)S(=O)(=O)c2ccc(F)cc2)O3)cc1 | -0.9
CCOC(=O)C1=CC[C@@H](c2ccccc2)[C@@]12CC/C(=C\c1ccccc1)C2=O | 0.0
Cc1noc(C)c1NC(=O)Nc1cccc2c1O[C@@H](CN(C)Cc1ccc(C(F)(F)F)cc1)[C@@H](C)CN([C@@H](C)CO)C2=O | 0.7
C[C@H](CO)N1C[C@H](C)[C@@H](CN(C)C(=O)NC2CCCCC2)Oc2c(NS(C)(=O)=O)cccc2C1=O | 0.1
C[C@@H]1CN([C@H](C)CO)C(=O)c2cc(NC(=O)Cc3ccccc3)ccc2O[C@@H](C)CCCCO[C@H]1CN(C)Cc1ccc(Cl)c(Cl)c1 | 1.5
C[C@H]1CCCCO[C@H](CN(C)C(=O)Nc2ccc3c(c2)OCO3)[C@@H](C)CN([C@@H](C)CO)C(=O)c2cc(NC(=O)C3CCCCC3)ccc2O1 | -0.1
COc1ccc(NC(=O)Nc2cccc3c2O[C@H](CN(C)C(=O)Nc2ccc(OC)cc2)[C@H](C)CN([C@H](C)CO)C3=O)cc1 | -1.1
C[C@@H]1CCCCO[C@H](CN(C)C(=O)Nc2ccccc2)[C@H](C)CN([C@H](C)CO)C(=O)c2cc(NS(C)(=O)=O)ccc2O1 | 0.2
C[C@@H]1CN([C@@H](C)CO)C(=O)Cc2cc(NC(=O)Nc3ccc4c(c3)OCO4)ccc2O[C@@H]1CN(C)S(=O)(=O)c1cccs1 | -0.2
Cc1noc(C)c1S(=O)(=O)Nc1ccc2c(c1)C(=O)N([C@H](C)CO)C[C@H](C)[C@@H](CN(C)S(=O)(=O)c1cccs1)OCCCC[C@@H](C)O2 | -0.7
C[C@H]1CN([C@@H](C)CO)C(=O)c2cccc(NS(=O)(=O)c3ccc(Cl)cc3)c2O[C@@H]1CN(C)Cc1ccc(-c2ccccc2)cc1 | 0.9
C[C@@H]1CCCCO[C@H](CN(C)C)[C@H](C)CN([C@@H](C)CO)C(=O)c2cc(NC(=O)CCCN(C)C)ccc2O1 | -1.5
C[C@@H]1CCCCO[C@H](CN(C)C(=O)Cc2ccccc2)[C@H](C)CN([C@@H](C)CO)C(=O)c2cc(NC(=O)Nc3ccccc3)ccc2O1 | -0.3
COc1ccc(OC(=O)N(C)C[C@H]2OCc3cn(nn3)CCCC(=O)N([C@@H](C)CO)C[C@@H]2C)cc1 | 1.9

# (further entries)
compound | A1 apoptosis 2
Cc1noc(C)c1NC(=O)Nc1cccc2c1O[C@H](CN(C)C(=O)Nc1ccc3c(c1)OCO3)[C@@H](C)CN([C@@H](C)CO)C2=O | -0.3
C[C@H]1CN([C@@H](C)CO)C(=O)Cc2cc(NC(=O)C3CC3)ccc2O[C@H]1CN(C)C(=O)Nc1ccc(C(F)(F)F)cc1 | -1.2
C[C@@H]1CN([C@@H](C)CO)C(=O)c2cccc(NS(=O)(=O)c3cccs3)c2O[C@H]1CN(C)S(=O)(=O)c1cn(C)cn1 | 0.7
C[C@H]1CN([C@@H](C)CO)C(=O)Cc2cc(NS(=O)(=O)c3cn(C)cn3)ccc2O[C@@H]1CN(C)S(=O)(=O)c1ccc(Cl)cc1 | 0.3
Cc1noc(C)c1S(=O)(=O)N(C)C[C@H]1OCCCC[C@@H](C)Oc2ccc(NS(=O)(=O)c3cn(C)cn3)cc2C(=O)N([C@H](C)CO)C[C@@H]1C | 0.6
COC(=O)C(CC#Cc1ccc2c(c1)[C@]1(C(=O)N2)[C@H](C(=O)N2CCc3cc(OC)c(OC)cc3C2)[C@H]2C(=O)O[C@H](c3ccccc3)[C@H](c3ccccc3)N2[C@@H]1c1ccc(O)cc1)C(=O)OC | 0.3
C[C@@H]1CN([C@@H](C)CO)C(=O)c2cc(NC(=O)Nc3ccccc3)ccc2O[C@@H]1CN(C)Cc1ccc(-c2ccccc2)cc1 | -0.9
C[C@H](CO)N1C[C@H](C)[C@H](CN(C)S(=O)(=O)c2ccc(F)cc2)OCCCC[C@H](C)Oc2ccc(NC(=O)Nc3ccc(F)cc3)cc2C1=O | -0.5
COc1ccc(NC(=O)Nc2cccc3c2O[C@H](CN(C)C(=O)Nc2ccccc2)[C@H](C)CN([C@H](C)CO)C3=O)cc1 | 0.0
CN1CCN(C(=O)C2=C[C@@H](c3ccc(Br)cc3)C[C@@H](OCCCCO)O2)CC1 | 0.0
COC(=O)c1c(CC[C@@H](CO)NC(=O)N[C@H](Cc2ccccc2)Cn2cc(-c3ccccn3)nn2)oc(C(C)=O)c1C(=O)OC | -0.1
